StopGo reporter = FMDV 2A StopGo reporter, luciferase signal; human cells with a luciferase reporter of 2A StopGo recoding; control for the full effect not named in the record; Potency, µM (titrated, usually from 57.9 µM), without a hit: at the top dose signal change, negative = less light; 1.2% of 410,000 active; AID 1159524; active = well fitted falling curve with a large enough effect; inconclusive = small, poorly fitted or top-dose-only effect; inactive = no such curve, though single readings can be large or run the other way; tested in HEK293T cells; further: nearly all actives have a fitted effect of over 45% in size; luciferase light after 4 h
RE007 growth inh = less growth of the S. pombe RE007 Vpr strain; 0.21% of 360,000 active; S. pombe RE007 Vpr strain, BacTiter-Glo ATP luminescence, 24 h; control for the full effect not named in the record; AID 651644; Potency, µM (series often up to 92.2 µM), inactives show at the top dose activity change, negative = less growth; active = well fitted falling curve with a large enough effect; inconclusive = small, poorly fitted or top-dose-only effect; inactive = no such curve, though single readings can be large or run the other way;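 further: nearly all actives have a fitted effect of over 50% in size; the assay follows cell death caused by Vpr and the record does not say whether a fall means rescue or toxicity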
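Fission yeast RE007 carrying one integrated HIV-1 vpr copy, seeded at OD 0.01 in PMG+AL medium with 23 nL pinned compound. Grown 24 h at 30 degrees; viability read by BacTiter-Glo luminescence after 5 min.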
* hit, by the source's call; ? = inconclusive; · = no result given; [ ] = another dose, or the depositor's remark. On the % scale 0 is the no-effect control and ±100 the full control effect; potency means the concentration at half of the fitted maximal effect. The list is partial; the hit share may differ from the screen's.

SMILES | StopGo reporter | RE007 growth inh
CC(C)C(=O)N1CCCC1(C)C(=O)N(C)Cc1cccc2ccccc12 (stereo not drawn) | -10% | 0%[18.4 µM]
CCOc1ccc(Cl)cc1-c1cc(C(=O)NCc2cc(C(F)(F)F)cc(C(F)(F)F)c2)[nH]n1 | ? | 6%
CCOC(=O)[C@]12CCC=C1N(Cc1ccc3c(c1)OCO3)C(=O)[C@H](CC(=O)NCCCOC)C2 | -14% | -15%
O=C1NC[C@H](CCCCN2C[C@@H](Cc3ccccc3)N(CCC3CCCCC3)C(=O)C2=O)N(CCC2CCCCC2)C1=O | ? | 6%
COc1ccc(C(CNC(=O)c2cccc(S(=O)(=O)Nc3ccc(F)cc3)c2)N2CCOCC2)cc1 (stereo not drawn) | 41%[activator] | -5%
C[C@@H]1CCCCO[C@H](CN(C)Cc2ccc(C(F)(F)F)cc2)[C@H](C)CN([C@@H](C)CO)C(=O)c2cc(NC(=O)Cc3ccccc3)ccc2O1 | ? | 16%
CC(C)CNc1ncnc2c1ncn2[C@H]1CN(Cc2ccc(F)cc2)C[C@@H](CO)O1 | -7% | 5%
CC(N)c1csc(NC(=O)c2cc(C(C)(C)C)nn2Cc2ccccc2)n1 (stereo not drawn) | -22% | -21%[18.4 µM]
CC1(C(=O)NS(=O)(=O)c2ccc(F)cc2F)CCN1C(=O)CC(c1ccccc1)c1ccccc1 (stereo not drawn) | -14% | 9%
CNc1cccc(-c2ccc(N3CCN(C)CC3)nc2)n1 | 24% | -27%[18.4 µM]
CCCCCNC(=O)C(CCc1ccccc1)n1c(=O)c(-c2cc3ccccc3[nH]2)nc2ccccc21 (stereo not drawn) | -1% | 7%
O=C(NCc1ccccc1)c1cc(C2COCCN2S(=O)(=O)c2cccs2)on1 (stereo not drawn) | 11% | 5%[18.4 µM]
COc1ccc(C(c2nnnn2C2CCCC2)N2CCN(C/C=C/c3ccccc3)CC2)cc1 (stereo not drawn) | 24% | -7%
CCc1c(-c2ccccc2F)ncn1Cc1cccc(-c2ccccc2)c1 | ? | -29%
Cc1cc2nc(-c3ccc(F)cc3)c(Cc3ccccc3)n2c(C)c1Br | -6% | 3%
COc1ccc(CCNC(=O)CSc2nc3c(sc(=S)n3-c3ccccc3)c(=O)[nH]2)cc1OC | -24% | 3%
C=Cn1cc(CNC[C@H]2O[C@@H](n3cnc4c(=O)[nH]c(N)nc43)[C@H](O)[C@@H]2O)c(C)n1 | -19% | 3%
CC(C)(C)NC(=O)C1(C)CCC(=O)N1CC(F)(F)F (stereo not drawn) | -2% | 4%
CCOC(=O)C1=CCC(c2cccc(Cl)c2)N(S(=O)(=O)c2ccc(C)cc2)C1 (stereo not drawn) | 3% | 2%
CN(C(=O)NC1CCCCC1)[C@H]1C[C@H]2c3[nH]c4ccccc4c3CCN2C(=O)[C@H]1CO | -9% | 2%
CCCCC1Cc2[nH][nH]c(=O)c2C(c2ccc(F)cc2)O1 (stereo not drawn) | -30% | 18%
O=C(Nc1cccc2cccnc12)c1csc(COCCO)n1 | -19% | -1%
COc1ccc(CN2C(=O)c3ccccc3C2c2nnnn2Cc2ccccc2)cc1OC (stereo not drawn) | -23% | 2%
CCOC(=O)c1c(NC(=O)COC(=O)c2cccc([N+](=O)[O-])c2)sc(C(=O)N(C)C)c1C | -8% | 5%
C[C@H]1CN([C@@H](C)CO)S(=O)(=O)c2ccc(C#CC(C)(C)O)cc2O[C@H]1CN(C)Cc1ccccc1 | -25% | 6%
O=C(Nc1ccc(S(=O)(=O)Nc2nccs2)cc1)c1ccncc1 | -11% | -1%[18.4 µM]
O=C1c2cc(CO)cc(O)c2C(=O)c2c(O[C@@H]3OC(CO)[C@@H](O)[C@@H](O)[C@@H]3O)cccc21 (stereo partly drawn) | -17% | -2%
COc1cccc(/C=C/c2nc(S(=O)(=O)c3ccccc3)c(N3CCC(C(N)=O)CC3)o2)c1 | 15% | 4%
COc1ccc(NC(=O)O[C@@H](C)[C@@H]2CN3CCc4c([nH]c5ccc(-c6ccc(OC)cc6)cc45)[C@@H]3C[C@@H]2N(C)C(=O)Nc2ccc(OC)cc2)cc1 | -25% | -3%
Cc1nc2ccc(C(=O)NCCCn3ccnc3)cn2c1N(C)C(=O)CCc1ccccc1 | -13% | -4%[18.4 µM]

7 structures out of the list, arranged by length of the SMILES, smallest number first.
SMILES | StopGo reporter | RE007 growth inh
CC(C)(C)NC(=O)C1(C)CCC(=O)N1CC(F)(F)F (stereo not drawn) | -2% | 4%
CCOC(=O)C1=CCC(c2cccc(Cl)c2)N(S(=O)(=O)c2ccc(C)cc2)C1 (stereo not drawn) | 3% | 2%
COc1cccc(/C=C/c2nc(S(=O)(=O)c3ccccc3)c(N3CCC(C(N)=O)CC3)o2)c1 | 15% | 4%
CN(C(=O)NC1CCCCC1)[C@H]1C[C@H]2c3[nH]c4ccccc4c3CCN2C(=O)[C@H]1CO | -9% | 2%
C=Cn1cc(CNC[C@H]2O[C@@H](n3cnc4c(=O)[nH]c(N)nc43)[C@H](O)[C@@H]2O)c(C)n1 | -19% | 3%
C[C@H]1CN([C@@H](C)CO)S(=O)(=O)c2ccc(C#CC(C)(C)O)cc2O[C@H]1CN(C)Cc1ccccc1 | -25% | 6%
COc1ccc(NC(=O)O[C@@H](C)[C@@H]2CN3CCc4c([nH]c5ccc(-c6ccc(OC)cc6)cc45)[C@@H]3C[C@@H]2N(C)C(=O)Nc2ccc(OC)cc2)cc1 | -25% | -3%

(further entries)
SMILES | StopGo reporter | RE007 growth inh
CN(C)c1ccc(/C=N/NC(=O)c2nnn(-c3nonc3N)c2CN2CCCCCC2)cc1 | -8% | -1%
Cc1csc(-c2nc3ccccc3n2C(C(=O)Nc2c(C)cccc2C)C2CC2)c1 (stereo not drawn) | 15% | -10%
CC1(c2ccccc2)NC(=O)N(CC(=O)N2CCc3ccccc32)C1=O (stereo not drawn) | 5% | 8%
Cc1ccc(O)c(Cc2cc(C)cc(Cc3cc(C)ccc3O)c2O)c1 | -8% | 2%
O=C(NCC1CC1)c1ccc2sc([C@H]3C[C@H](O)[C@@H](CO)O3)nc2c1 | -2% | 16%
CCN(CC)C(=O)C1=C(C)N(Cc2ccc(C(C)(C)C)cc2)C(=O)C(CC(=O)NCCCN(C)C)C1 (stereo not drawn) | -13% | 3%
Cc1c(C(=O)N2CCN(Cc3nccn3C)CC2)oc2c(F)cccc12 | -6% | 2%
CC(CC(=O)Nc1ccc2c(c1)c(=O)n(C)n2-c1ccc2ccccc2c1)C(F)(F)F (stereo not drawn) | 18% | -12%
Cc1ccc2ccccc2c1NC(=O)CNCc1ccccc1 | ? | 15%
CCN1C[C@@H]2[C@@H]3C(=O)N(Cc4ccccc4)C(=O)[C@@H]3[C@](Cc3ccccc3)(C(=O)OC)N2C1=NCc1ccccc1 | -10% | -12%
Cc1ccccc1S(=O)(=O)N1C[C@H]2[C@H]3C(=O)N(c4ccccc4)C(=O)[C@H]3CC(=O)[C@H]2[C@@H]1c1ccc(Cl)cc1 | -19% | 5%
C[C@@H]1CN([C@H](C)CO)C(=O)CCCn2cc(nn2)CO[C@H]1CN(C)C(=O)Nc1ccc2c(c1)OCO2 | -10% | 11%
CC(C)COC(=O)N(C)C[C@H]1OCc2cnnn2CCCC(=O)N([C@H](C)CO)C[C@@H]1C | 8% | -1%
COc1ccc(NC(=O)N(C)C[C@H]2OCCCC[C@@H](C)Oc3ccc(N(C)C)cc3C(=O)N([C@H](C)CO)C[C@@H]2C)cc1 | -22% | 5%
Cc1cc(C)nc(NS(=O)(=O)c2ccc(NC(=O)c3ccccc3Br)cc2)n1 | 57%[activator] | 16%
CC[C@H](C)[C@H]1CNC(=S)N1CC1CCN(CCCC2CCCC2)CC1 | -20% | -9%
CC(C)(C)c1ccc(C(=O)NCCN2CCOCC2)cc1 | 17% | -15%
COc1ccc(C(C(=O)Nc2c(C)cccc2C)N2CCN(C)CC2)cc1 (stereo not drawn) | -12% | 0%
CC(C)CN(C(=O)CSc1nnc(-c2cccs2)n1C1CC1)C1CCS(=O)(=O)C1 (stereo not drawn) | -13% | -4%
Cc1cccc(-c2ccc3c(c2)C2CC3CCN2Cc2ccc3c(c2)OCO3)c1 (stereo not drawn) | -22% | -6%
COc1ccc(NC(=O)C(OC(=O)Cn2cnc3c2c(=O)n(C)c(=O)n3C)c2ccccc2)cc1Cl (stereo not drawn) | 103%[activator] | 0%
O=C(Nc1ccn(CCCN2CCN(c3ccccn3)CC2)c(=O)n1)OCc1ccccc1 | -25% | -2%
O=C(O)CC(c1ccccc1)N1C(=O)c2ccccc2C1=O (stereo not drawn) | -18% | -15%
Cc1ccc2cc(CNC[C@H]3O[C@@H](n4cc(C)c(=O)[nH]c4=O)C[C@@H]3O)c(N3CCOCC3)nc2c1 | -19% | 4%
CCCS(=O)(=O)NC(=O)C1(C)CCCN(C(=O)COCc2ccccc2)C1 (stereo not drawn) | -14% | 2%
O=C(O)c1ccccc1Cc1ccc(F)c2ccccc12 | 18% | 0%
Cc1cc(OCCCN2CCC(C(O)(c3ccccc3)c3ccccc3)CC2)ccc1Br | -16% | -8%
CCCNC(=O)C1(C)CCN(C(=O)COc2ccc(C(C)(C)C)cc2)C1 (stereo not drawn) | -12% | -1%
COc1ccc(-c2nc3ccc(Br)cn3c2Cc2ccccc2C(F)(F)F)cc1OC | -7% | -10%
Cc1cccc(NC(=O)c2nc[nH]c2C(=O)NC[C@H](C)O)c1 | ? | 0%

Some of the entries so far, as comma-separated lines:
compound,StopGo reporter,RE007 growth inh
CC[C@H](C)[C@H]1CNC(=S)N1CC1CCN(CCCC2CCCC2)CC1,-20%,-9%
CC(C)(C)c1ccc(C(=O)NCCN2CCOCC2)cc1,17%,-15%
COc1ccc(C(C(=O)Nc2c(C)cccc2C)N2CCN(C)CC2)cc1 (stereo not drawn),-12%,0%
CC(C)CN(C(=O)CSc1nnc(-c2cccs2)n1C1CC1)C1CCS(=O)(=O)C1 (stereo not drawn),-13%,-4%

Other entries follow:
SMILES | StopGo reporter | RE007 growth inh
C[C@H]1CN([C@@H](C)CO)C(=O)CCCn2nncc2CO[C@@H]1CN(C)S(=O)(=O)c1ccccc1 | -23% | 19%
OC(c1ccc(F)c(F)c1)c1nc(-c2cnc3ccccc3c2)cs1 (stereo not drawn) | 24% | 9%[18.4 µM]
NC(=O)CC(NC(=O)Cc1ccc(Br)cc1)c1ccc(NC2CCCCCCC2)c([N+](=O)[O-])c1 (stereo not drawn) | -27% | 6%
CCc1nc2c(OCCc3cccc(OC)c3)cccn2c1N(C)C(=O)c1ccc(OC)cc1 | -10% | 4%
CN(CCc1ccccc1)C(CCc1ccccc1)C(=O)Nc1ccc2c(c1)OCCO2 (stereo not drawn) | 7% | -23%
CCCCn1nnnc1C(c1cccc2ccccc12)N1CCC2(CC1)C(=O)NCN2c1ccccc1 (stereo not drawn) | -14% | 9%
CC1(c2nnnn2-c2ccc3c(c2)OCCO3)CCC(=O)N1CCCN1CCOCC1 (stereo not drawn) | -14% | 6%
COc1ccc(C2CCCCC2SCC(=O)O)cc1OC (stereo not drawn) | -7% | 1%
C[C@H]1CN([C@@H](C)CO)S(=O)(=O)c2ccc(-c3ccncc3)cc2O[C@H]1CN(C)C(=O)c1cccc(F)c1 | -7% | -12%
COC(=O)c1ccc2nc(-c3ccc(F)cc3)c(Cc3cccc(F)c3)n2c1 | 0% | -23%
C=CCCC(=O)N1C[C@H]2CON(C)[C@H]2C[C@H]1c1ccccc1Br | -22% | -15%
COc1cc2c(cc1OC)C1CCc3cc4c(cc3C1N=C2)OCO4 (stereo not drawn) | -8% | -6%
CCOC(=O)N1CCN(C(=O)CCN2C(=O)/C(=C\c3ccc(OC)c(OC)c3)SC2=S)CC1 | -6% | 1%
CN1CCN(C(=O)c2cccc(-c3cnc4cnc(-c5ccccc5Oc5ccccc5)cn34)c2)CC1 | -14% | 0%[18.4 µM]
CC1(C2CC2)NC(=O)N(CC(=O)Nc2ccc(OC(F)F)cc2)C1=O (stereo not drawn) | -1% | 13%
CCOC(=O)C1(C)CCN1C(=O)c1ccccc1 (stereo not drawn) | -11% | 6%
COC(=O)c1cnc(NC(=O)C2(C)CCN2C(=O)C(C)C)s1 (stereo not drawn) | -2% | 9%
Cc1ccc(C(C)C)c(O)c1C(=O)O | -13% | 14%
CCc1nc2ccc(C(=O)N3CCN(S(=O)(=O)CC)CC3)cn2c1N(C)Cc1cccs1 | -22% | -21%
CC1(C)CC(=O)C(CSC(=O)c2ccccc2)C(=O)C1 | ? | -15%
CCOc1ccc(Cl)cc1-c1cc(C(=O)NCc2ccccc2)[nH]n1 | 3% | 5%
CC(C)(C)NC(=S)N1CCC2CC1c1c(Cl)cccc12 (stereo not drawn) | 21% | -4%
CC(NC(=O)C1CCCN1C(=O)c1cccs1)c1ccc(Cl)cc1Cl (stereo not drawn) | · | -1%
CCc1nc2c(OCc3ccc(C#N)cc3)cccn2c1N(C)C(=O)c1ccc(C)cc1 | -28% | -1%
O=C(COC(=O)Cc1c(Cl)cccc1Cl)NCc1ccccc1 | -24% | -19%
CCC(C(=O)NCc1ccccc1)n1c(-c2cccs2)nc2ccccc21 (stereo not drawn) | -25% | -4%

Screening data: PubChem BioAssay, National Center for Advancing Translational Sciences (NCATS)
